Screening results deposited in PubChem BioAssay by National Center for Advancing Translational Sciences (NCATS).
SARS PLpro yeast – SARS-CoV PLP inhibition in yeast; S. cerevisiae expressing SARS-CoV PLpro, growth rescue; control for the full effect not named in the record; Potency, µM (top dose mostly 32.9 µM), inactives show at the top dose activity, positive = growth rescue; 330,000 compounds, 0.19% hits; AID 485353; active means well fitted rising curve with a large enough effect; inconclusive means small, poorly fitted or top-dose-only effect; inactive means no such curve, though single readings can be large or run the other way; also: 0% is about no effect; nearly all actives have a fitted effect of over 55% in size; growth read by luminescence after 48 h
RE007 growth inh – less growth of the S. pombe RE007 Vpr strain | S. pombe RE007 Vpr strain, BacTiter-Glo ATP luminescence, 24 h; control for the full effect not named in the record | Potency, µM (titrated, usually from 92.2 µM), for the others: at the top dose activity change, negative = less growth | 360,000 compounds, 0.21% hits; active = well fitted falling curve with a large enough effect; inconclusive = small, poorly fitted or top-dose-only effect; inactive = no such curve, though single readings can be large or run the other way;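 also: % is scaled to controls: 0 for no effect and ±100 for the full control effect; nearly all actives have a fitted effect of over 50% in size; the assay follows cell death caused by Vpr and the record does not say whether a fall means rescue or toxicity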
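Fission yeast RE007 carrying one integrated HIV-1 vpr copy, seeded at OD 0.01 in PMG+AL medium with 23 nL pinned compound. Grown 24 h at 30 degrees; viability read by BacTiter-Glo luminescence after 5 min.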
StopGo reporter – FMDV 2A StopGo reporter, luciferase signal; human cells with a luciferase reporter of 2A StopGo recoding; control for the full effect not named in the record; 410,000 compounds, 1.2% hits; Potency, µM (highest dose often 57.9 µM), for the others: top-dose signal change, negative = less light; active = well fitted falling curve with a large enough effect; inconclusive = small, poorly fitted or top-dose-only effect; inactive = no such curve, though single readings can be large or run the other way; tested in HEK293T cells; also: % is scaled to controls: 0 for no effect and ±100 for the full control effect; nearly all actives have a fitted effect of over 45% in size; luciferase light after 4 h
Active calls of the source: *; u = inconclusive; [ ] = dose if it differs, or a comment. Potency is read from the fitted curve at half-maximal effect. A portion of the library. The share of hits here may be higher or lower than overall.

Every second line gives: SARS PLpro yeast	RE007 growth inh	StopGo reporter
Cc1noc(C)c1NC(=O)Nc1ccc2c(c1)CC(=O)N([C@@H](C)CO)C[C@@H](C)[C@@H](CN(C)C(=O)Nc1cccc3ccccc13)O2
    2%	-3%	11%
CCOc1ccc2c(c1)C(N(CCN1CCOCC1)C(=O)Nc1ccccc1)CC(C)(C)O2 (configuration not stated)
    3%	18%	10%
CC[C@]12c3[nH]c4ccccc4c3CCN1C(=O)C(CC(=O)NCc1ccc(OC)c(OC)c1)C[C@@H]2C(=O)N1CCN(C(=O)C2CC2)CC1 (some centres not stated)
    3%	-2%	-14%
CC(C)CC(=O)OC(C)(C)[C@@H]1Cc2c(ccc3ccc(=O)oc23)O1
    -4%	8%	0%
COC(=O)[C@]1(C)N[C@H](CN(C)C(=O)Nc2ccc(Cl)cc2)[C@@H]2C(=O)N(C)C(=O)[C@@H]21
    0%	7%	-11%
COc1ccccc1C(=O)NCCC(=O)Nc1ccc(S(=O)(=O)N2CCC(C)CC2)cc1
    7%	4%	-22%
O=C(NCc1ccccc1)c1onc(CS(=O)(=O)c2ccccn2)c1C(=O)NCc1ccccc1
    4%	-16%	-23%
Cc1ccc(C(=O)Cn2c(=N)n(CCN3CCOCC3)c3ccccc32)cc1
    -1%	-14%	-9%
C[C@H](NC(=O)c1ccc(Cl)c(S(=O)(=O)N2CCOCC2)c1)c1nc2ccccc2[nH]1
    2%	-3%	6%
CCOC(=O)C1=C(COC(=O)COc2cccc(C)c2C)NC(=O)NC1C (configuration not stated)
    -5%	-4%	-6%

Compound profiles, as listed above. Screens in order: SARS PLpro yeast | RE007 growth inh | StopGo reporter
C[C@H](NC(=O)c1ccc(Cl)c(S(=O)(=O)N2CCOCC2)c1)c1nc2ccccc2[nH]1 across the screens: 2% | -3% | 6%
COC(=O)[C@]1(C)N[C@H](CN(C)C(=O)Nc2ccc(Cl)cc2)[C@@H]2C(=O)N(C)C(=O)[C@@H]21 across the screens: 0% | 7% | -11%

Following part.
Every second line gives: SARS PLpro yeast	RE007 growth inh	StopGo reporter
CCCCc1ccc(NS(=O)(=O)c2cccc(C(=O)N3CCCN(C)CC3)c2)cc1
    1%	3%	-15%
O=C(CC1SC(N2CCOCC2)=NC1=O)Nc1ccccc1Cl (configuration not stated)
    4%	-4%	-18%
COc1ccc(-n2c(SCC(=O)NCc3cccs3)nc3[nH]ncc3c2=O)cc1
    1%	-9%	13%
COc1ccc(S(=O)(=O)N(C)C[C@H]2Oc3ccc(NC(=O)Cc4ccccc4)cc3C(=O)N([C@H](C)CO)C[C@@H]2C)cc1
    -5%	-7%	-4%
CC1CCN(C(=O)c2cc(S(=O)(=O)N3CCOCC3)ccc2N2CCCC2)CC1
    4%	-10%	1%
CC(C)=CCC/C(C)=C/CNC(=O)C[C@H]1C[C@H](C(=O)N2CCCCC2)[C@@]2(CCc3ccccc3)c3[nH]c4cc(-c5ccco5)ccc4c3CCN2C1=O
    5%	11%	-8%
CCOC(=O)C1=CNS(=O)(=O)NC1c1ccc(C[C@H](NC(=O)CNC(=O)CCc2ccccc2)C(N)=O)cc1 (some centres not stated)
    16%	1%	1%
C#CCOCCOCCOCCNc1nc(N2CCN(C(=O)Cn3cc(CCCCN)nn3)CC2)nc(N2CCN(C(=O)[C@H]([C@@H](C)CC)n3cc(CCCCN)nn3)CC2)n1
    0%	-18%	-15%
CCCCNC(=O)Cn1nc(C)c(S(=O)(=O)N2CCOCC2)c1C
    -7%	-2%	-6%
Cc1cccc(COC(=O)CCCNC(=O)c2ccc(Cl)cc2)c1
    -13%	-17%	-24%
Cc1noc(C)c1C(=O)N(CC(=O)Nc1ccc(Cl)c(C(F)(F)F)c1)Cc1ccco1
    -2%	5%	-12%
CCCC(=O)Nc1cc(S(=O)(=O)N2CCCCC2)ccc1N1CCOCC1
    5%	6%	-2%
Nc1nc(N(Cc2ccccc2)Cc2ccccc2)nc(C(F)(F)F)n1
    -6%	7%	u
Cn1c(CC(=O)NNC(=O)c2cccnc2)nc2ccccc21
    -6%	15%	-27%
CN(c1ccc(F)cc1)S(=O)(=O)c1ccc(Cl)c(C(=O)NC2(C)CCS(=O)(=O)C2)c1 (configuration not stated)
    4%	0%	-11%
COc1ccc(NC(=O)CSc2nnc3ccc(-c4ccncc4)nn23)cc1OC
    1%	8%	7%
Nc1c(N(Cc2ccco2)C(=O)COc2ccccc2Cl)c(=O)[nH]c(=O)n1Cc1ccccc1
    1%	5%	-2%
CCCC(=O)NC(=S)Nc1ccc(CN2CCOCC2)cc1
    -4%	-5%	9%
C[C@H](CO)N1C[C@H](C)[C@@H](CN(C)C(=O)NC2CCCCC2)Oc2c(NS(=O)(=O)c3ccccc3)cccc2C1=O
    -2%	5%	0%
COc1ccc(C(=O)N(C)C2CCCCC2)cc1S(=O)(=O)N1CCOCC1
    1%	-2%	-7%
CC(=O)Nc1ccc(NC(=O)COc2ccc3c(c2)CCC3)cc1
    -1%	9%	5%
O=C(c1cc2ccccc2o1)N1CCN(S(=O)(=O)c2ccc(F)c(F)c2F)CC1
    1%	11%	-25%
COc1cccc(C(=O)O[C@H]2[C@H](Cc3ccccc3)NS(=O)(=O)[C@H]3C[C@@H]4C=C[C@]23O4)c1
    -37%	1%	14%
CCCCCCSc1cc(-c2nc3cc(C)ccn3c2NC2CCCCC2)ccc1OC
    -3%	3%	u
O=C(CC1C[C@H](C(=O)N2CCCCC2)[C@@]2(CCc3ccccc3)c3[nH]c4ccccc4c3CCN2C1=O)NCCC1=CCCCC1 (some centres not stated)
    1%	-9%	31%[activator]
CCCNC(=O)N1[C@H]2CC[C@@H]1C(C(=O)OC)=C(c1ccc(OC)c(OC)c1)C2
    -5%	-24%	-5%
O=C(NC1CCCCC1)c1n[nH]c2c1CCCCC2
    5%	-27%	14µM*
COC(=O)C1=C(c2ccc(C(C)=O)cc2)C[C@@H]2CC[C@H]1N2C(=O)NCc1ccc(F)cc1
    -3%	1%	6%
COc1ccccc1C(CNC(=O)c1ccc(OCc2c(C)noc2C)cc1)N1CCCC1 (configuration not stated)
    0%	-3%	u
O=C(COC(=O)Cc1ccc(S(=O)(=O)N2CCOCC2)s1)Nc1ccc([N+](=O)[O-])cc1
    2%	3%	-8%
NC(=O)c1cc([N+](=O)[O-])ccc1NCc1cccc([N+](=O)[O-])c1
    2%	23%	16%
COc1ccccc1NS(=O)(=O)c1ccc(C(=O)NCC(c2cccs2)N2CCOCC2)cc1 (configuration not stated)
    3%	16%	-15%
CC(C)NC(=O)NC(=O)COC(=O)c1ccc(S(=O)(=O)NCc2ccco2)cc1
    -5%	-11%	20%
COc1cc(C(=O)NCC2CCCCC2)ccc1OCc1c(C)noc1C
    3%	4%	-1%
COc1ccc(/C(C)=N/Nc2nccnc2Cl)cc1
    2%	-16%	46%[activator]
COc1ccc(CNC(=O)c2ccc(Cl)c(S(=O)(=O)N3CCOCC3)c2)cc1OC
    -3%	5%	u
Cc1ccc2cc(CCNC(=O)c3cccc([N+](=O)[O-])c3)c(=O)[nH]c2c1
    -2%	-9%	-26%
O=C(COC(=O)c1ccc(S(=O)(=O)N2CCCC2)cc1)Nc1cccc(Br)c1
    7%	-16%	-15%
OC(COc1ccc2c(c1)OCO2)CN1CCCCC1 (configuration not stated)
    1%	-14%	9%
COc1ccc([C@H]2C(C(=O)O)=C[C@@H](C(C)(C)C)N2S(=O)(=O)c2ccc(C)cc2)cc1OC
    3%	18%	5%
CCN(C[C@H]1N[C@@](CC)(C(=O)OC)[C@H]2C(=O)N(C)C(=O)[C@@H]12)S(=O)(=O)c1ccc(F)cc1
    -1%	-2%	-10%
CCCc1cc(=O)[nH]c(SC(C)C(=O)N2c3ccccc3CC2C)n1 (configuration not stated)
    -3%	0%	3%
CCOc1ccc(C(C)=O)cc1COC(=O)c1ccc2c(c1)NC(=O)CS2
    -8%	10%	u
Cc1cccc(N2CCN(C(=O)C3CC(=O)N(c4ccc5c(c4)OCCO5)C3)CC2C)c1 (configuration not stated)
    6%	0%	u
O=[N+]([O-])[N-][n+]1cnn(Cc2ccccc2)c1
    -1%	37%	-1%
COc1ccc(S(=O)(=O)N(C)C[C@H]2Oc3c(NC(=O)NC(C)C)cccc3C(=O)N([C@H](C)CO)C[C@@H]2C)cc1
    0%	16%	-6%
COc1ccc(OCCCC(=O)Nc2cc(S(=O)(=O)N3CCCCC3)ccc2C)cc1
    16%	34%	-26%
CC(C)(C)[C@@H]1C=C(C(=O)O)[C@H](c2ccc(Cl)cc2)N1S(=O)(=O)c1ccccc1
    u	-2%	-6%
CCN(CC(=O)Nc1c(F)cccc1F)C(=O)/C=C/c1ccc(C)cc1
    -2%	16%	72%[activator]
COc1ccc(C(=O)OCCCc2cc3ccccc3c(=O)o2)cc1
    -1%	1%	21%

Compounds above with fluorine (7):
Every second line gives: SARS PLpro yeast	RE007 growth inh	StopGo reporter
Cc1noc(C)c1C(=O)N(CC(=O)Nc1ccc(Cl)c(C(F)(F)F)c1)Cc1ccco1
    -2%	5%	-12%
Nc1nc(N(Cc2ccccc2)Cc2ccccc2)nc(C(F)(F)F)n1
    -6%	7%	u
CN(c1ccc(F)cc1)S(=O)(=O)c1ccc(Cl)c(C(=O)NC2(C)CCS(=O)(=O)C2)c1 (configuration not stated)
    4%	0%	-11%
O=C(c1cc2ccccc2o1)N1CCN(S(=O)(=O)c2ccc(F)c(F)c2F)CC1
    1%	11%	-25%
COC(=O)C1=C(c2ccc(C(C)=O)cc2)C[C@@H]2CC[C@H]1N2C(=O)NCc1ccc(F)cc1
    -3%	1%	6%
CCN(C[C@H]1N[C@@](CC)(C(=O)OC)[C@H]2C(=O)N(C)C(=O)[C@@H]12)S(=O)(=O)c1ccc(F)cc1
    -1%	-2%	-10%
CCN(CC(=O)Nc1c(F)cccc1F)C(=O)/C=C/c1ccc(C)cc1
    -2%	16%	72%[activator]

Further records follow:
Every second line gives: SARS PLpro yeast	RE007 growth inh	StopGo reporter
C[C@H](CO)N1C[C@H](C)[C@@H](CN(C)S(=O)(=O)c2ccc(F)cc2)Oc2c(NC(=O)Nc3ccc(C(F)(F)F)cc3)cccc2C1=O
    -1%	3%	0%
N#Cc1ccccc1NCC(=O)N1CCN(S(=O)(=O)c2ccccc2)CC1
    4%	5%	0%
Cc1ccc(OCC(=O)N(Cc2nnc(-c3ccccc3Cl)o2)C2CC2)cc1C
    -1%	-9%	25%
O=C1c2ccccc2/C(=C\c2ccc(Br)s2)N1c1ccccc1
    4%	-20%	12%
CC(C)C[C@@H](CN1C(N)=NC[C@@H]1C)NC(=O)CC12CC3CC(CC(C3)C1)C2
    -4%	11%	-10%
CC(C)Cc1nnc(NC(=O)c2ccc(N3CCCC3=O)cc2)s1
    3%	1%	5%
CCN1C(=O)[C@H]2[C@@H](c3ccc(-c4ccc(OC)cc4)cc3)N[C@@](Cc3ccccc3)(C(=O)OC)[C@H]2C1=O
    0%	-7%	13%
C[C@@H]1CN([C@@H](C)CO)C(=O)c2cccc(NC(=O)C3CCCCC3)c2O[C@@H]1CN(C)Cc1ccc(Cl)c(Cl)c1
    6%	5%	-21%
CN(C(=O)COC(=O)c1ccc(Cl)c(S(=O)(=O)N2CCCCCC2)c1)C1CCS(=O)(=O)C1 (configuration not stated)
    3%	10%	u
CC1CCCCC12NC(=O)N(CC(=O)NCCc1c[nH]c3ccccc13)C2=O (configuration not stated)
    -2%	-17%	-2%
CCN1C(=O)[C@H]2[C@@H](c3ccc(-c4ccc(C(C)=O)cc4)cc3)N[C@@](Cc3ccccc3)(C(=O)OC)[C@H]2C1=O
    -2%	-3%	-14%
CC(OC(=O)c1ccc(Br)o1)C(=O)Nc1ccc2c(c1)OCCO2 (configuration not stated)
    -3%	-5%	-3%
COc1ccc(CCNC2CCCCC2)cc1
    0%	-4%	4%
CCOC(=O)c1sc(NC(=O)CSc2nc(O)c(Cc3ccccc3)c(=O)[nH]2)nc1C
    2%	3%	-18%
CC(Sc1nccn1C)C(=O)NC1(C#N)CCCCC1 (configuration not stated)
    -14%	3%	-11%
Cc1cc(NC(=O)COC(=O)C2=NN(c3ccccc3)C(=O)CC2)c([N+](=O)[O-])cc1C
    -6%	-13%	2%
CC[C@]12c3[nH]c4cc(CCC(=O)N(C)C)ccc4c3CCN1C(=O)[C@@H](CC(=O)NC/C=C(\C)CCC=C(C)C)C[C@@H]2C(=O)N1CCN(C(=O)C2CC2)CC1
    -12%	2%	-24%
Cc1ccc(C(=O)CSc2nc3c([nH]2)c(=O)n(C)c(=O)n3C)cc1
    -1%	5%	-4%
CCc1ccccc1NC(=O)CN(C)C(=O)COC(=O)c1ccco1
    -7%	-4%	-23%
O=C(C1CCN(S(=O)(=O)c2ccccc2)CC1)N1CCC1
    0%	-14%	-2%
O=C(COC(=O)COc1cccc(Br)c1)Nc1ccc(F)cc1F
    -4%	1%	-7%
